E coli WT exp – growth inhibitors of wild-type E. coli, primary screen, strain BW25113, expanded library, OD600 | OD600 absorbance | hit rate 0.15% among 98,000 | growth inhibition, % at 100 µM;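 active = growth inhibition above about 50% at one test dose, limit read from the data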;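 also: growth measured after 20 h incubation at 37 °C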
cytoskel mod – modifiers of F-actin cytoskeleton organization, primary screen, imaging, HUVEC, phalloidin staining, high-content imaging; HUVEC TNFa F-actin phalloidin imaging; inhibition, % at 2 µM; hit rate 0.18% among 91,000; AID 836, 2007;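 active = inhibition above the batch mean plus 3 SD and confirmed as a hit by visual image inspection, cut at about 30% in these data, passing the limit was not always enough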; also: strong numbers were not always called active
Plk1 PBD FP – Plk1 polo box domain binding inhibitors, primary screen, biochemical, fluorescence polarization | Serine/threonine-protein kinase PLK1 (Homo sapiens), P53350 | Plk1 PBD phosphopeptide binding | inhibition, %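 (tested at about 20 µM)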 | hit rate 0.13% among 97,000; in the data active = inhibition above about 34%, passing the limit was not always enough
DAT uptake mod – changed hDAT dopamine uptake under cocaine IC80, either direction, primary screen, cocaine antagonist project, cell-based, LLC-PK1 hDAT, [14C]-dopamine uptake, MLSMR | Sodium-dependent dopamine transporter (Homo sapiens), Q01959 | LLC-PK1 hDAT cells, [14C]-dopamine uptake with cocaine IC80; actives deviate in either direction | B-score at 10 µM | hit rate 1.3% among 110,000;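 active = Z score or B-score, a plate-position-corrected score, falls beyond the plate's 99.7% confidence bounds, in either direction; inactive = both scores lie inside the 99.7% bounds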;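 also: scored against the spread of the other compound wells on the same plate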
Target sequence (Q01959 whole entry, looked up): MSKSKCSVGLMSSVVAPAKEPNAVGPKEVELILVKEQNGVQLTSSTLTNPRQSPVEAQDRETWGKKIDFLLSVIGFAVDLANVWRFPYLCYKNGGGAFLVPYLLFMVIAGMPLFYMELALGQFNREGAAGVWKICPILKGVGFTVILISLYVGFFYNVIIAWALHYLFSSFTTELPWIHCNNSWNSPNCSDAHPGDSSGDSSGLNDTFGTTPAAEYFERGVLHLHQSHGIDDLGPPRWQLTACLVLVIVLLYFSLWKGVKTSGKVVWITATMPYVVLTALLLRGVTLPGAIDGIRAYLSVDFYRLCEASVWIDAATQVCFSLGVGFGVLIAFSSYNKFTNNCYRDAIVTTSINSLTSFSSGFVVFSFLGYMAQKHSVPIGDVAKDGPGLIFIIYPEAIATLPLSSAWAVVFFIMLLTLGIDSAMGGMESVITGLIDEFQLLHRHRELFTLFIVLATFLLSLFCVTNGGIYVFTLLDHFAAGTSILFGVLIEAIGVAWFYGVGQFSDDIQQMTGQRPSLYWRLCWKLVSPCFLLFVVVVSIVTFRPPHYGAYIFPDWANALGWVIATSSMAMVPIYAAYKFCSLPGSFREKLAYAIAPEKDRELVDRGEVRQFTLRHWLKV
HUVEC tox IL1B – cytotoxicity in IL-1B stimulated HUVEC, primary screen, cytotoxicity control for IL-1B NFkB translocation project, imaging, Hoechst nuclear count, IL-1B stimulus; hit rate 0.41% among 94,000; cell count reduction, % at 2 µM; HUVEC cell count loss;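 active = cell count reduction more than 3 SD above the screen-wide mean, cut at about 70% in these data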;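 also: normalized per plate to untreated control cells as the no-loss baseline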
PLK1 inh – human PLK1 kinase inhibitors, primary screen, biochemical, TR-FRET. Serine/threonine-protein kinase PLK1 (Homo sapiens), P53350. recombinant PLK1 kinase, TR-FRET peptide phosphorylation. inhibition, % at 10 µM. hit rate 0.53% among 97,000;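 active = inhibition of 50% or more in the single-concentration screen; inactive = inhibition below 50%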;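 also: 0% = DMSO max control and 100% = H-89 dihydrochloride min control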
TNFa cytotox – cytotoxicity in TNFa-stimulated HUVEC, primary screen, cytotoxicity control for VCAM1 expression modulator project, imaging, Hoechst nuclei count; HUVEC TNFalpha-stimulated, Hoechst cell count; AID 848, 2007; hit rate 0.17% among 93,000; cell count reduction, % at 2 µM;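 active = cell count reduction exceeding the screen mean by over 5 SD, scaled to untreated wells per plate, cut at about 78% in these data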;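 also: cells counted after 24 h of TNF alpha exposure following the 1 h pretreatment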
VCAM1 TNFa inh – inhibitors of TNFa-induced VCAM1 expression, primary screen, imaging, HUVEC, TNFa stimulus, immunofluorescence; HUVEC TNFa-induced VCAM-1 immunofluorescence, high-content imaging; inhibition, % at 2 µM; hit rate 0.48% among 95,000; AID 802, 2007;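 active = inhibition above the batch mean plus 3 SD, with images confirmed as a hit by eye, cut at about 37% in these data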;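 also: 0% = TNF-stimulated DMSO wells and 100% = unstimulated control wells; not every result past the cut was called active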
* = called active by the depositor.

What do the screens show for `CC1CCN(CCCNC(=O)CCCNC(=O)Cn2cnc3sc4c(c3c2=O)CCCC4)CC1`?
E coli WT exp: 2; cytoskel mod: -8; Plk1 PBD FP: -17; DAT uptake mod: 0.34; HUVEC tox IL1B: 1; PLK1 inh: 0; TNFa cytotox: -2; VCAM1 TNFa inh: 11

Results for O=C(NC1CCCCC1)NC1CCN(C(=S)NCc2ccco2)CC1 ?
E coli WT exp: -4; cytoskel mod: 13; Plk1 PBD FP: -2; DAT uptake mod: -0.64; HUVEC tox IL1B: 0; PLK1 inh: 1; TNFa cytotox: -12; VCAM1 TNFa inh: -2

What do the screens show for `O=C(N/C=N/OCc1cccc(C(F)(F)F)c1)N1OC[C@@H]2COc3ccc4ccccc4c3[C@@H]21`?
E coli WT exp: -4; cytoskel mod: -24; Plk1 PBD FP: 0; DAT uptake mod: -1.1; HUVEC tox IL1B: -4; PLK1 inh: -5; TNFa cytotox: 12; VCAM1 TNFa inh: 3

What do the screens show for `N#CC(c1ccccn1)(c1ncc(C(F)(F)F)cc1Cl)N1CCOCC1` (stereo not given)?
E coli WT exp: -3; cytoskel mod: -3; Plk1 PBD FP: -29; DAT uptake mod: 0.58; HUVEC tox IL1B: -16; PLK1 inh: -10; TNFa cytotox: -31; VCAM1 TNFa inh: 10

What do the screens show for `CCc1ccc(NCc2cc3c(C)nn(-c4ccccc4)c3[nH]c2=O)cc1`?
E coli WT exp: -18; cytoskel mod: -27; Plk1 PBD FP: 8; DAT uptake mod: -0.24; HUVEC tox IL1B: 2; PLK1 inh: -4; TNFa cytotox: -3; VCAM1 TNFa inh: -6

How did O=C(Nc1ccc2c(c1)OCCO2)c1cccc(S(=O)(=O)N2CCOCC2)c1 do in these assays?
E coli WT exp: -6; cytoskel mod: 0; Plk1 PBD FP: 29; DAT uptake mod: 0.79; HUVEC tox IL1B: -6; PLK1 inh: -12; TNFa cytotox: -45; VCAM1 TNFa inh: -7

What do the screens show for `Cc1cccc(-n2nnc(C(=O)N3CCc4ccccc4C3)c2N)c1`?
E coli WT exp: -14; cytoskel mod: -19; Plk1 PBD FP: 18; DAT uptake mod: 0.48; HUVEC tox IL1B: -12; PLK1 inh: -1; TNFa cytotox: 5; VCAM1 TNFa inh: 10

Results for CCOC(=O)C1CCN(C(=O)c2ccc(N(C)S(C)(=O)=O)cc2)CC1 ?
E coli WT exp: -9; cytoskel mod: 0; Plk1 PBD FP: -11; DAT uptake mod: -1.7; HUVEC tox IL1B: -9; PLK1 inh: 3; TNFa cytotox: -24; VCAM1 TNFa inh: 24

What do the screens show for `CCOC(=O)Cn1c(C)cc(=O)c2cccc(C)c21`?
E coli WT exp: 2; cytoskel mod: 8; Plk1 PBD FP: 5; DAT uptake mod: 1.1; HUVEC tox IL1B: 19; PLK1 inh: 7; TNFa cytotox: -1; VCAM1 TNFa inh: 0

Results for CCc1ccc(N2C(=O)C3ON(c4ccccc4)C(c4ccco4)C3C2=O)cc1 (stereo not given) ?
E coli WT exp: -10; cytoskel mod: 15; Plk1 PBD FP: -19; DAT uptake mod: 0.16; HUVEC tox IL1B: -31; PLK1 inh: -4; TNFa cytotox: 10; VCAM1 TNFa inh: 10

What do the screens show for `Cc1c(C(=O)Nc2ccc3c(c2)OCO3)sc2ncn(CC(=O)N3CC(C)CC(C)C3)c(=O)c12` (stereo not given)?
E coli WT exp: -8; cytoskel mod: -11; Plk1 PBD FP: -15; DAT uptake mod: 0.96; HUVEC tox IL1B: -10; PLK1 inh: -3; TNFa cytotox: 16; VCAM1 TNFa inh: -20

Results for Cc1csc(NC(=O)c2cccc(S(=O)(=O)N3CCCCC3)c2)n1 ?
E coli WT exp: 11; cytoskel mod: -1; Plk1 PBD FP: -10; DAT uptake mod: 1.7; HUVEC tox IL1B: 7; PLK1 inh: -7; TNFa cytotox: -3; VCAM1 TNFa inh: -10

How did COc1ccc(CNC(=O)C2CCCN(c3nccc(C)n3)C2)cc1 (stereo not given) do in these assays?
cytoskel mod: -8; Plk1 PBD FP: 0; DAT uptake mod: 0.77; HUVEC tox IL1B: 8; PLK1 inh: -11; TNFa cytotox: 2; VCAM1 TNFa inh: 16

What do the screens show for `CCN(CC)S(=O)(=O)c1ccc(-c2nnc(SCC(=O)Nc3ccc4c(c3)OCO4)o2)cc1`?
E coli WT exp: 7; cytoskel mod: 14; Plk1 PBD FP: -6; DAT uptake mod: -1.5; HUVEC tox IL1B: -17; PLK1 inh: -2; TNFa cytotox: -51; VCAM1 TNFa inh: -57

Results for CS(=O)(=O)N(CC(N)=O)c1cccc(Br)c1 ?
cytoskel mod: -10; Plk1 PBD FP: 2; DAT uptake mod: -0.066; HUVEC tox IL1B: -5; PLK1 inh: -12; TNFa cytotox: -8; VCAM1 TNFa inh: -6

What do the screens show for `O=C(C1COc2ccccc2O1)N1CCCC1` (stereo not given)?
E coli WT exp: 4; cytoskel mod: -24; Plk1 PBD FP: 5; DAT uptake mod: -0.29; HUVEC tox IL1B: 17; PLK1 inh: -11; TNFa cytotox: 48; VCAM1 TNFa inh: 9

Fetched one by one from the list above (three):
How did COc1ccc(CNC(=O)C2CCCN(c3nccc(C)n3)C2)cc1 (stereo not given) do in these assays?
cytoskel mod: -8; Plk1 PBD FP: 0; DAT uptake mod: 0.77; HUVEC tox IL1B: 8; PLK1 inh: -11; TNFa cytotox: 2; VCAM1 TNFa inh: 16

What do the screens show for `O=C(C1COc2ccccc2O1)N1CCCC1` (stereo not given)?
E coli WT exp: 4; cytoskel mod: -24; Plk1 PBD FP: 5; DAT uptake mod: -0.29; HUVEC tox IL1B: 17; PLK1 inh: -11; TNFa cytotox: 48; VCAM1 TNFa inh: 9

What do the screens show for `CCN(CC)S(=O)(=O)c1ccc(-c2nnc(SCC(=O)Nc3ccc4c(c3)OCO4)o2)cc1`?
E coli WT exp: 7; cytoskel mod: 14; Plk1 PBD FP: -6; DAT uptake mod: -1.5; HUVEC tox IL1B: -17; PLK1 inh: -2; TNFa cytotox: -51; VCAM1 TNFa inh: -57

Source: PubChem (several laboratories)

Only part of the results is shown; count on the stated rates, not on these rows.
